SARS PLpro yeast = blocks SARS-CoV papain-like protease in a yeast assay; S. cerevisiae expressing SARS-CoV PLpro, growth rescue; control for the full effect not named in the record; Potency, µM (series often up to 32.9 µM), for inactives: at the highest dose activity, positive = growth rescue; 330,000 tested, 0.19% active; AID 485353; further: 0% is about no effect; nearly all actives have a fitted effect of over 55% in size; growth read by luminescence after 48 h
NS1 function inh = inhibitors of influenza NS1 protein function; AID 2326; Potency, µM (series often up to 46.1 µM), for inactives: at the highest dose activity, positive = more growth; 270,000 tested, 0.4% active; S. cerevisiae slowed by influenza A NS1, growth recovery by OD600; further: actives are rising curves; nearly all actives have a fitted effect of over 50% in size
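S. cerevisiae expressing influenza A NS1, grown in glucose, washed, then diluted 1:100 into pH 6.0 -URA galactose medium with 23 nl compound. Growth recovery read as OD600; NS1-free strain serves as control.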
Lassa entry inh = inhibitors of Lassa virus binding or cell entry | Lassa virus pseudotype entry inhibition, cell reporter; control for the full effect not named in the record | Potency, µM (doses to about 37.9 µM), for inactives: top-dose activity change, negative = inhibition, usual class: inhibitors | 300,000 tested, 1.2% active; active means well fitted inhibition curve with a large enough effect; inconclusive means small, poorly fitted or top-dose-only effect, or effect the other way; inactive means flat fitted curve, though single readings scatter; tested in HEK293 cells; further: on the % scale 0 is the no-effect control and ±100 the full control effect; nearly all actives have a fitted effect of over 50% in size; luciferase read-out
2A StopGo = FMDV 2A StopGo reporter, luciferase signal; human cells with a luciferase reporter of 2A StopGo recoding; control for the full effect not named in the record; Potency, µM (doses to about 57.9 µM), for inactives: top-dose signal change, negative = less light; 410,000 tested, 1.2% active; AID 1159524; active = well fitted falling curve with a large enough effect; inconclusive = small, poorly fitted or top-dose-only effect; inactive = no such curve, though single readings can be large or run the other way; tested in HEK293T cells; further: on the % scale 0 is the no-effect control and ±100 the full control effect; nearly all actives have a fitted effect of over 45% in size; luciferase light after 4 h
RE007 growth inh = less growth of the S. pombe RE007 Vpr strain; S. pombe RE007 Vpr strain, BacTiter-Glo ATP luminescence, 24 h; control for the full effect not named in the record; Potency, µM (highest dose often 92.2 µM), for the others: at the top dose activity change, negative = less growth; 360,000 tested, 0.21% active; AID 651644; active = well fitted falling curve with a large enough effect; inconclusive = small, poorly fitted or top-dose-only effect; inactive = no such curve, though single readings can be large or run the other way;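 further: on the % scale 0 is the no-effect control and ±100 the full control effect; nearly all actives have a fitted effect of over 50% in size; the assay follows cell death caused by Vpr and the record does not say whether a fall means rescue or toxicity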
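Fission yeast RE007 carrying one integrated HIV-1 vpr copy, seeded at OD 0.01 in PMG+AL medium with 23 nL pinned compound. Grown 24 h at 30 degrees; viability read by BacTiter-Glo luminescence after 5 min.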
MARV entry inh = blocks Marburg virus binding to or entry into cells. 300,000 tested, 1.8% active. Potency, µM (doses to about 37.8 µM), for inactives: top-dose activity change, negative = inhibition, actives largely listed as inhibitors. Marburg virus pseudotyped entry inhibition, cell reporter; control for the full effect not named in the record; about a third of the inactives were read at about 46 µM. AID 540276; active = well fitted inhibition curve with a large enough effect; inconclusive = small, poorly fitted or top-dose-only effect, or effect the other way; inactive = flat fitted curve, though single readings scatter; tested in HEK293 cells; about a fifth of its hits are not listed in these tables; further: on the % scale 0 is the no-effect control and ±100 the full control effect; luciferase read-out
Cruzain noTriton = inhibitors of Trypanosoma cruzi cruzain without detergent | Potency, µM, for inactives: max response, negative = inhibition, most hits filed as inhibitors | AID 1476 | P25779 | 200,000 tested, 2.3% active | purified cruzain, Z-FR-AMC fluorescence, no detergent; active means well fitted curve in the direction sought with a large enough effect; inconclusive means small, poorly fitted or top-dose-only effect, or another doubt; inactive means no such curve, though single readings can be large; an effect the other way counts as inactive or inconclusive;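 further: plate controls were enzyme without inhibitor for no effect and buffer without enzyme for full effect; nearly all actives have a fitted effect of over 40% in size; top concentration of the series not given in the record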
Target sequence (P25779 123-467 limits assumed): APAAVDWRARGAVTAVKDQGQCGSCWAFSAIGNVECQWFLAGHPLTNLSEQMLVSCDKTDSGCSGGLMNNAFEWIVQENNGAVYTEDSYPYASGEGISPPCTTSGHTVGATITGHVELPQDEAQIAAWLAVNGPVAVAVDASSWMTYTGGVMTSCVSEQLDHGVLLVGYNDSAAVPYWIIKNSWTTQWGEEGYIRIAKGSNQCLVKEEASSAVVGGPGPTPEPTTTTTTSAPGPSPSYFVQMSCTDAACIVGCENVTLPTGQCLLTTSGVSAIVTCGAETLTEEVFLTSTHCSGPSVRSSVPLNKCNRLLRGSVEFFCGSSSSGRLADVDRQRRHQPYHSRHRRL
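Purified cruzain at 1.5 nM, pre-incubated 15 min with compound at room temperature in 100 mM sodium acetate pH 5.5, 5 mM DTT, 0.00005% Triton X-100. Reaction started with 2 uM Z-FR-AMC; AMC fluorescence increase over 60 s gives rate.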
Cruzain Triton = inhibitors of Trypanosoma cruzi cruzain with detergent; P25779; purified cruzain, Z-FR-AMC fluorescence, 0.01% Triton; Potency, µM, without a hit: max response, negative = inhibition, hits mostly inhibitors; 200,000 tested, 0.43% active; AID 1478; active means well fitted curve in the direction sought with a large enough effect; inconclusive means small, poorly fitted or top-dose-only effect, or another doubt; inactive means no such curve, though single readings can be large; an effect the other way counts as inactive or inconclusive;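 further: plate controls were neutral wells for no effect and buffer without enzyme for full effect; nearly all actives have a fitted effect of over 40% in size; top concentration of the series not given in the record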
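Sodium acetate buffer (100 mM, pH 5.5) containing 5 mM DTT and 0.01% Triton X-100 hosted 1.5 nM cruzain and test compound for 15 min at room temperature. Cleavage of 2 uM Z-FR-AMC was then tracked by fluorescence.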
* hit, by the source's call; ? = inconclusive; / = no result given; [ ] = another dose, or the depositor's remark. Unless noted, the call rests on the fitted dose curve; in most records, active means well fitted rising curve with a large enough effect; inconclusive means small, poorly fitted or top-dose-only effect; inactive means no such curve, though single readings can be large or run the other way. Potency means the concentration at half of the fitted maximal effect.

Structure	RE007 growth inh	SARS PLpro yeast	NS1 function inh	MARV entry inh	Cruzain Triton	Cruzain noTriton	Lassa entry inh	2A StopGo
CC(C)c1ccc(NC(=O)C2=CC=CN3CCS(=O)(=O)N=C23)cc1	-3.2%	-1.5%	/	9.0%	/	/	-0.9%	84.6%[activator]
COc1ccc(NC(=O)c2ccc3c(c2)c(C)c(C)n3Cc2ccc(F)cc2)c(OC)c1	/	/	/	/	-0.7%	?	11.7%[46.1 µM]	-11.7%
CN(C)CCN1C(=O)C(O)=C(C(=O)c2ccco2)C1c1ccccc1F (centres undefined)	-2.9%	-4.2%	-8.6%	-13.0%	4.7%	-15.0%	24.4%	-7.4%
CC(C(=O)NCc1ccccc1)N1C(=O)C2CC=C(Cl)CC2C1=O (centres undefined)	4.6%	6.4%	?	16.4%	5.4%	1.5%	-2.7%	-4.8%
CCCN1CCC(NC(=O)Cc2ccccc2OC)CC1	-3.5%	1.4%	5.3%	/	/	/	/	3.8%
COc1ccc(N2CCN(C(=O)c3ccc(CNc4c(N5CCOCC5)c(=O)c4=O)cc3)CC2)cc1	1.0%	-0.2%	-15.6%	/	/	/	/	-3.7%
COc1ccccc1-c1noc(-c2ccc(N3CCN(c4ccccc4)CC3)c([N+](=O)[O-])c2)n1	/	/	/	-3.0%[46.1 µM]	-2.1%	?	0.9%[46.1 µM]	?
O=C(CNc1cc(S(=O)(=O)N2CCOCC2)ccc1NCC1CCCO1)Nc1ccccc1F (centres undefined)	8.2%	3.9%	2.5%	?	/	/	-11.8%	6.6%

Grouped by structure: the compounds so far with four or more nitrogen atoms
Structure	RE007 growth inh	SARS PLpro yeast	NS1 function inh	MARV entry inh	Cruzain Triton	Cruzain noTriton	Lassa entry inh	2A StopGo
COc1ccc(N2CCN(C(=O)c3ccc(CNc4c(N5CCOCC5)c(=O)c4=O)cc3)CC2)cc1	1.0%	-0.2%	-15.6%	/	/	/	/	-3.7%
COc1ccccc1-c1noc(-c2ccc(N3CCN(c4ccccc4)CC3)c([N+](=O)[O-])c2)n1	/	/	/	-3.0%[46.1 µM]	-2.1%	?	0.9%[46.1 µM]	?
O=C(CNc1cc(S(=O)(=O)N2CCOCC2)ccc1NCC1CCCO1)Nc1ccccc1F (centres undefined)	8.2%	3.9%	2.5%	?	/	/	-11.8%	6.6%

Next section.
Structure	RE007 growth inh	SARS PLpro yeast	NS1 function inh	MARV entry inh	Cruzain Triton	Cruzain noTriton	Lassa entry inh	2A StopGo
CCOc1ccccc1N1CCN(C(=O)c2ccc3c(c2)OCO3)CC1	-7.1%	-8.9%	-1.4%	?	/	/	-2.7%	-29.6%
CC1CN(c2oc(-c3ccco3)nc2S(=O)(=O)c2ccccc2)CC(C)O1 (centres undefined)	2.1%	-12.6%	5.0%	-20.6%[46.1 µM]	-0.3%	5.4%	-12.7%	-0.5%
Cc1ccc(C(=O)NCc2nnc(SCC(=O)NC(C)c3ccccc3)n2C)cc1 (centres undefined)	2.4%	-1.6%	0.7%	?	/	/	9.3%	12.0%
Cc1cccc(N2CCN(C(=O)CN3C(=O)CSc4c3c(C)nn4-c3ccccc3)CC2)c1C	/	/	/	/	-1.1%	-9.6%	11.3%[46.1 µM]	-16.4%
CCCCCC(=O)NNC(=S)NC(=O)c1ccc([N+](=O)[O-])cc1	39.9%	28.1%	/	3.2%[46.1 µM]	/	/	?	-6.7%
COc1ccc(NC(=O)CS(=O)CC(=O)NCc2cccc(C(F)(F)F)c2)cc1 (centres undefined)	-2.2%	-2.3%	5.3%	-22.9%	-0.9%	-16.3%	-10.9%	17.7%
CSc1ncc(Cl)c(C(=O)O)n1	1.7%	-0.7%	-1.9%	10.2%	3.4%	-10.1%	12.9%	-18.6%
O=C(COc1ccc(Cl)cc1)N(Cc1ccccc1)c1ccccn1	-0.6%	0.7%	-12.2%	?	-1.6%	-4.6%	-6.8%	-1.4%
CCCCCCSc1nc(O)c(C2OC(=O)c3c2ccc(OC)c3OC)c(=O)n1-c1ccccc1 (centres undefined)	-9.1%	3.1%	?	6.2%	-22.2%	?	-6.0%	?
CC1=C(c2ccc(F)cc2)S(=O)(=O)NC1=NCc1ccccc1F	/	/	/	/	-1.6%	-6.3%	13.1%[46.1 µM]	12.7%
COc1ccc(C(=O)NC(C(=O)NCc2ccccn2)C(C)C)cc1 (centres undefined)	-6.5%	5.9%	3.0%	11.6%	2.2%	7.3%	8.8%	8.2%
Cc1ccc(C(CC(=O)O)NC(=O)CN2C(=O)c3ccccc3C2=O)cc1 (centres undefined)	-17.1%	1.3%	9.5%	3.8%[46.1 µM]	/	/	-6.5%	0.4%
Cc1cc(/C=C\c2ccc3cc(N(C)C)ccc3[n+]2C)c(C)n1-c1ccccc1	-19.9%	/	/	/	-19.0%	-18.0%	/	20µM*
COc1ccc(CNC(=O)c2ccccc2C(=O)O)cc1	-17.0%	5.7%	5.0%	9.4%	1.0%	9.7%	2.9%	0.3%
Cc1ccc2c(c1)N(CC(=O)NC1CCCCC1)C(=O)c1cccnc1O2	-2.3%	21.0%	6.8%	/	/	/	/	16.3%
CCN1C(=O)C(CC(=O)Nc2ccc(F)cc2)N(CCCN2CCN(c3ccc(F)cc3)CC2)C1=S (centres undefined)	12.5%	2.0%	/	?	/	/	?	-17.9%
COc1cccc2cc(C(=O)Nc3ccccc3C)/c(=N/O)oc12	-8.3%	-0.5%	-3.0%	/	/	/	/	22.2%
O=C(CCC(=O)Nc1cccc([N+](=O)[O-])c1)NCc1ccccc1	-3.4%	-1.6%	13.2%	/	/	/	/	-14.2%
Cc1cnc(C(=O)OCC(=O)N(Cc2ccccc2)C(C)C)cn1	?	0.5%	-1.3%	3.8%[46.1 µM]	/	/	-0.8%[46.1 µM]	-0.8%
Cn1c(=NC(=O)COc2ccccc2)sc2cc(F)cc(F)c21	-7.9%	0.6%	0.6%	/	/	/	/	19.3%
Cc1nnc(SCC(=O)Nc2c(C)n(C)n(-c3ccccc3)c2=O)n1Cc1ccccc1	9.9%	2.7%	1.1%	-2.4%[46.1 µM]	/	/	?	-6.5%
O=C(COc1ccc2ccccc2c1)NNC(=O)Nc1ccccc1F	4.4%	-3.9%	12.8%	17.1%	/	/	9.0%	33.4%[activator]
OCC1(Cc2ccc(Cl)cc2)CCN(Cc2ccccc2F)CC1	-7.9%	0.3%	5.2%	?	/	/	-0.8%[46.1 µM]	-19.0%
Cc1ccc(N2CC(C(=O)Nc3ccccn3)CC2=O)cc1 (centres undefined)	-9.1%	2.2%	2.6%	10.8%	2.9%	7.3%	6.9%	-14.8%
CCCCSc1ncnc2c1ncn2C1CCCCO1 (centres undefined)	0.3%	/	/	?	/	/	?	-8.3%
Cc1cc(-c2ccco2)n(CC(=O)NCc2ccco2)n1	17.4%	-1.1%	-6.0%	5.8%	-5.6%	7.6%	/	-13.4%
CCOc1ccc(CN2CCCC(N3CCN(c4ccc(OC)cc4)CC3)C2)cc1 (centres undefined)	-11.9%	-6.3%	29.5%	/	/	/	/	?
COCCN=C1Sc2nc3c(C)cccc3cc2CN1Cc1ccco1	-1.7%	-3.4%	2.9%	-7.5%[46.1 µM]	-8.1%	-2.6%	6.2%	-27.0%
COc1ccc(CCN2CC(C(=O)N(C)Cc3c(C)n[nH]c3C)CCC2=O)cc1 (centres undefined)	8.3%	1.4%	4.7%	/	/	/	/	0.0%
CCc1cccc(NC(=O)CCNS(=O)(=O)c2ccc3c(c2)oc(=O)n3C)c1	13.0%	-1.5%	2.3%	-20.0%[46.1 µM]	/	/	-13.5%[46.1 µM]	39.6%[activator]
CCOc1ccc(/C=N/NC(=O)CN2CCCCC2)cc1OCC	-20.7%	-1.9%	-8.4%	-22.8%[46.1 µM]	/	/	10.9%[46.1 µM]	-4.9%
COc1c(C)cccc1C(=O)Nc1ccc(N2CCN(C(=O)c3ccccc3C)CC2)cc1	6.2%	-10.1%	-22.7%	?	/	/	?	?
Cc1c(C(=O)N2CCC(C)CC2)sc2ncnc(N(C)c3ccccc3)c12	16.6%	-51.5%	-23.9%	?	-11.8%	-2.0%	-15.5%	?
CCC(C)NC(=O)C1CN(S(=O)(=O)c2ccccc2)CCN1S(=O)(=O)c1ccccc1 (centres undefined)	-1.5%	-3.0%	-15.0%	-2.6%	-1.2%	7.9%	-13.7%	6.9%
C=CCN1C(=O)C2(OCCCO2)c2c(C)ccc(C)c21	-25.9%	-1.6%	9.7%	?	/	/	2.1%[46.1 µM]	-17.1%
O=C(Nc1cccc(Cl)c1)c1csc(-c2ccccc2)n1	-20.6%	-23.6%	-10.9%	-17.5%	2.2%	5.3%	-26.6%	28.5%
CC1CCCC(C)N1CCCNC(=O)c1ccc2c(c1)NC(=O)c1ccccc1S2 (centres undefined)	5.5%	-1.7%	-15.1%	?	/	/	-6.3%[46.1 µM]	-7.6%
O=C(O)C(Oc1ccc2cc(-c3ccc(Cl)cc3)c(=O)oc2c1)c1ccccc1 (centres undefined)	-12.9%	-0.3%	?	/	/	/	/	-13.4%
COc1ccc(-c2nc3ccncc3[nH]2)cc1OC	-0.8%	-15.6%	-3.1%	18.3%[46.1 µM]	-3.9%	1.2%	?	10.6%
COc1ccc(NC(=O)/C(=C\c2ccco2)NC(=O)c2ccco2)cc1	-8.5%	2.6%	-4.2%	-25.3%[46.1 µM]	/	/	-3.5%[46.1 µM]	5.0%
CCCN(CCC)CCCNC(=O)C1c2cc(OC)c(OC)cc2C(=O)N(C)C1c1cccnc1 (centres undefined)	10.7%	-3.5%	/	?	/	/	28.2%[46.1 µM]	0.7%
CC1Cc2ccccc2N1C(=O)c1ccnc(C(C)(C)C)c1 (centres undefined)	7.3%	6.7%	-49.6%	-4.0%	-4.7%	-16.0%	10.8%	?

Source: PubChem (National Center for Advancing Translational Sciences (NCATS))
